TRPV1 PAM: potentiators of human vanilloid receptor 1 (TRPV1); Q8NER1; TRPV1-expressing cells, Fluo-8 calcium influx, capsaicin EC20 potentiation; host cell line not named in the record; control for the full effect not named in the record; potentiation, % at 8.33 µM; 320,000 compounds, 0.02% hits; AID 540277; active means potentiation above 80%; inconclusive means 30% to 80%; inactive means below 30%; note: 0% is about no effect
Target sequence (Q8NER1 whole entry, looked up): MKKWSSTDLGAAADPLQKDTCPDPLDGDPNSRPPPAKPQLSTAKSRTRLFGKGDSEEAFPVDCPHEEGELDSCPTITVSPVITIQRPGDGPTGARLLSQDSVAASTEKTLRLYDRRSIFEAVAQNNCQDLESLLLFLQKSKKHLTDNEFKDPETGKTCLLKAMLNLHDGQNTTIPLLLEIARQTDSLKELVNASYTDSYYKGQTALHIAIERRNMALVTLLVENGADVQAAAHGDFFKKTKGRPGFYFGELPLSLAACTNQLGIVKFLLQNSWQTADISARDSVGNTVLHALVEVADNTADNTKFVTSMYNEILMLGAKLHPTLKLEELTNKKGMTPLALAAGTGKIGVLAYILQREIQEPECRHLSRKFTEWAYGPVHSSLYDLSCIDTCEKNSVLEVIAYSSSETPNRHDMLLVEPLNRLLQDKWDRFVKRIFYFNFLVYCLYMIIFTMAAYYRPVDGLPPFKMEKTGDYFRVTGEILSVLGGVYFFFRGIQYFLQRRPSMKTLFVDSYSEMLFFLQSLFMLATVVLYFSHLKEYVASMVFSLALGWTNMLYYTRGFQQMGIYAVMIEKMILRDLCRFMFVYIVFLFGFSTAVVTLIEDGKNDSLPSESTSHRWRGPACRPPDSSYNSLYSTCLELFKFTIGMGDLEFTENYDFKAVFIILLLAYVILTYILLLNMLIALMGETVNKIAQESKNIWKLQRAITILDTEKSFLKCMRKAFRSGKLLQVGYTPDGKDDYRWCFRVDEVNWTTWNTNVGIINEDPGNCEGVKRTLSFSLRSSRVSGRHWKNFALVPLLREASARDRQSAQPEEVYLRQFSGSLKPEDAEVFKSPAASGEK
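TRPV1-expressing cells were cultured overnight at 35.5C and loaded with Fluo-8 calcium dye for 40 to 90 min at room temperature. After a 10 s baseline, compound was added and calcium influx was read kinetically for 3 min (ex 480/em 520 nm).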
Sfp inh: Sfp phosphopantetheinyl transferase inhibition | Potency, µM, without a hit: max response, negative = inhibition, actives largely listed as inhibitors | Q9F4F7 | AID 1490 | Biochemical Sfp PPTase activity, qHTS | 310,000 compounds, 3.5% hits; active = well fitted inhibition curve with a large enough effect; inconclusive = small, poorly fitted or top-dose-only effect, or another doubt; inactive = no such curve, though single readings can be large or run the other way;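 note: the enzyme is Sfp with the accession as filed and its product quenches rhodamine fluorescence; potency is the fitted concentration of half-maximal effect; 0% = enzyme reaction without inhibitor and -100% = no enzyme wells; top concentration of the series not given in the record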
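Reaction rates are the 30-min fluorescence difference (ex 525, em 598 nm) in wells containing 15 nM Sfp, 5 uM rhodamine-CoA and 12.5 uM BHQ-2-YbbR at pH 7.6 with 10 mM MgCl2.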
Six1-Eya2 inh: blocks human Six1 binding to Eya2; Q15475+O00167; AlphaScreen GST-Six1/His-Eya2 binding, biochemical; hits give low values; control for the full effect not named in the record; activity change, % (concentration not given with the values); 360,000 compounds, 0.56% hits; in the data active = activity change below about -65%; inconclusive = about -30% to -65%; inactive = above about -30%; note: % is set by controls: 0 for no effect and ±100 for the full control effect
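AlphaScreen with GST-Six1 and His-Eya2 (5X mix: 250 nM and 500 nM), glutathione donor and nickel acceptor beads; buffer 50 mM Tris pH 8.0, 300 mM NaCl, 1 mM TCEP; 1 h at 37 C in the dark.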
D2 agonist: human D2 receptor agonism in beta-arrestin assay; 360,000 compounds, 0.084% hits; activation, % (concentration not given with the values); AID 624465; P14416; DiscoveRx PathHunter D2 beta-arrestin, luminescence, 90 min; 100% = 57 uM dopamine signal; in the data active = activation above about 40%; inconclusive = about 15% to 40%; inactive = below about 15%; note: the text of the record calls up to 30% inactive
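DiscoveRx PathHunter D2 beta-arrestin cells (2,100/well) attached overnight, then compound-stimulated 90 min at 37 C in HBSS/10 mM HEPES/0.1% Tween-20 buffer; beta-galactosidase complementation read by luminescence after 1 h at ambient temperature. Dopamine 57 uM final (EC100) as control.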
PINK1 modulator: PINK1 expression modulation; Potency, µM (titrated, usually from 76.6 µM), inactives show top-dose activation (PINK1 increase), hits mostly activators; PINK1 immunofluorescence, high-content cytometry, 24 h; 410,000 compounds, 0.2% hits; AID 624263; active = well fitted activation curve with a large enough effect; inconclusive = small, poorly fitted or top-dose-only effect; inactive = flat fitted curve, though single readings scatter; cell line not stated here;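 note: potency is the fitted concentration of half-maximal effect; % of control where 0% means no effect; nearly all actives have a fitted effect of over 65% in size; a mitochondrial uncoupler was the plate control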
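Decision-based qHTS: stable cells, 24 h exposure to five compound concentrations, CCCP as control. Fixed cells stained for PINK1 plus nuclear, mitochondrial and cell markers, cytometer read.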
CtBP-E1A blk: inhibitors of CtBP/E1A interaction. activity change, % (no concentration beside the values). AlphaScreen GST-E1A/His-CtBP binding, 1536-well; hits give low values; control for the full effect not named in the record. 340,000 compounds, 0.49% hits; in the data active means activity change below about -65%; inconclusive means about -30% to -65%; inactive means above about -30%; note: % is set by controls: 0 for no effect and ±100 for the full control effect
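In 5 uL wells, 23 nL compound meets equimolar GST-E1A and His-CtBP (5X stock 125 nM each) for 2 h, 37 °C. Beads (5X, 50 ug/mL) then 1 h, 37 °C, dark.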
D2 PAM: positive allosteric modulators of human D2 dopamine receptor; DiscoveRx D2 beta-arrestin cells, luminescence, 90 min; 100% = 57 uM dopamine signal; 360,000 compounds, 0.23% hits; P14416; AID 624464; potentiation, % (no concentration beside the values); active = potentiation of 50% or more; inconclusive = 30% to 50%; inactive = 30% or less;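 note: compound concentration not given in the record; tested on top of an EC20 dose of dopamine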
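PathHunter D2 cells, attached overnight at 37 deg C, received compound in DMSO plus dopamine at EC20 (50 nM final) for 90 min at 37 deg C. Beta-arrestin recruitment was read as luminescence after 1 h with detection reagent at ambient temperature.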
* hit, by the source's call; ? = inconclusive; nt = not tested or not shown; & = joins results of further samples; [ ] = another dose, or the depositor's remark.

SMILES	TRPV1 PAM	Sfp inh	Six1-Eya2 inh	D2 agonist	PINK1 modulator	CtBP-E1A blk	D2 PAM
O=C(Nc1nc2ccc(Cl)cc2s1)c1ccc(Br)o1	-9.8	2.7%	13.4	-3.2	7.1%	0.0	-29.3
O=C(N1CCN(c2ccccc2)CC1)C1(S(=O)(=O)c2ccc(Cl)cc2)CC1	11.4	13.5%	0.2	-3.7	-1.1%	-1.4	-11.0
CNc1sc(C(=O)c2ccc(F)cc2)c(N)c1-c1nc2ccccc2s1	11.3	-19.2%	-29.3	-9.6	-1.7%[38.3 µM]	?	-35.4
Cc1ccccc1NC(=O)c1ccc(CSc2ncccn2)cc1	1.7	6.8%	2.9	-0.7	-2.5%[38.3 µM]	4.0	1.0
O=C(Nc1ccc(N2CCOCC2)cc1N1CCOCC1)c1ccco1	3.7	7.6%	-2.0	-4.7	0.1%	1.9	6.1
O=C(O)C1CC=C(Cl)CC1C(=O)NCc1ccccc1 (stereo not drawn)	-2.2	15.0%	-1.4	-2.8	-2.0%	5.8	-7.7
O=C(c1cc(N2C(=O)C3C4CCC(C4)C3C2=O)ccc1Cl)N1CCN(c2ccccc2)CC1 (stereo not drawn)	3.2	1.6%	-4.0	0.3	8.3%	-1.0	-10.7
COc1ccc(C(=O)N2c3ccccc3C(=O)OC2c2ccc3c(c2)OCO3)cc1 (stereo not drawn)	-9.7	14.9%	-4.6	-2.8	1.3%	-0.5	-10.1
CCN(C(=O)CN1C(=O)c2ccc([N+](=O)[O-])cc2C1=O)C1CCS(=O)(=O)C1 (stereo not drawn)	-1.0	nt	-3.1	6.8	3.4%	1.5	?
CC(=O)Nc1ccc(NC(=O)CCC(=O)NCCO)cc1	-5.8	12.7%	4.2	-2.5	-0.9%[38.3 µM]	4.3	-3.3
CCC1CN(C(=O)NCc2ccc(C)cc2)c2cc(Cl)ccc2O1 (stereo not drawn)	-3.7	-9.2%	19.0	11.0	0.3%&0.3%	23.2	2.3
CC[C@@H](C)[C@@H](C(=O)N1CCN(C(=O)OC(C)(C)C)CC1)n1cc(CCCN=C(NC(=O)OC(C)(C)C)NC(=O)OC(C)(C)C)nn1	15.9	-10.4%	1.5	-0.4	-1.4%	0.8	-11.1
Cn1c(=O)c2cc(S(=O)(=O)NCCC(=O)NCCC3=CCCCC3)ccc2n(C)c1=O	3.8	2.2%	-15.6	-4.6	1.3%	-12.7	-17.0
Cc1ccnc(N2CCC(C(=O)Nc3ccc4c(c3)OCCO4)CC2)n1	-3.6	18.5%	-8.1	-4.1	0.8%	4.5	-1.0
CONC(=O)c1ccc(-c2cccc3nccn23)cc1	nt	nt	0.4	2.3	0.8%	5.1	-0.7
CC1(C)Cc2c(c(=S)nc(-c3ccccc3)n2CCN2CCOCC2)CO1	18.2	-2.0%	3.0	-1.0	-0.1%[38.3 µM]	-0.5	-11.3
COc1ccc(CCNC2=C(Cl)C(=O)N(CCc3ccc(OC)c(OC)c3)C2=O)cc1OC	6.7	-16.2%	3.3	6.0	10.7%	6.9	?
O=S(=O)(c1ccc2ccccc2c1)N1CCN(S(=O)(=O)N2CCCCC2)CC1	-1.5	1.7%	0.7	0.2	28.7%[38.3 µM]	7.4	-3.3
COc1ccccc1-n1cnc2cc(NC(=O)c3ccco3)ccc21	12.0	9.4%	12.9	0.3	10.5%[38.3 µM]	47.5	-12.6
COc1cc(C2Nc3ccc4ncccc4c3C3=C2C(=O)CCC3)cc(OC)c1O (stereo not drawn)	5.4	?	-14.9	0.0	11.6%	-1.2	3.4
OCc1ccccc1-c1nc(NCc2ccccc2)nc2ccsc12	nt	nt	5.4	1.9	0.5%	-21.0	-1.9
CCCCCOC(=O)CSc1nnc(-c2cc(OC)c(OC)c(OC)c2)o1	-2.6	0.8%	9.4	-2.2	2.8%[38.3 µM]	15.9	-10.8
CC(C)(C)NCC(=O)N/N=C/c1ccc(OCc2ccccc2)cc1	-0.5	11.8%	1.7	-5.1	2.4%	-9.5	1.7
O=C(NCCCN1CCOCC1)c1cccc(S(=O)(=O)N2CCc3ccccc32)c1	nt	nt	11.0	0.1	-1.1%	10.1	-8.0

Shown field by field: part of the list above
COc1cc(C2Nc3ccc4ncccc4c3C3=C2C(=O)CCC3)cc(OC)c1O (stereo not drawn)
  TRPV1 PAM: 5.4
  Sfp inh: ?
  Six1-Eya2 inh: -14.9
  D2 agonist: 0.0
  PINK1 modulator: 11.6%
  CtBP-E1A blk: -1.2
  D2 PAM: 3.4
OCc1ccccc1-c1nc(NCc2ccccc2)nc2ccsc12
  TRPV1 PAM: nt
  Sfp inh: nt
  Six1-Eya2 inh: 5.4
  D2 agonist: 1.9
  PINK1 modulator: 0.5%
  CtBP-E1A blk: -21.0
  D2 PAM: -1.9
CCCCCOC(=O)CSc1nnc(-c2cc(OC)c(OC)c(OC)c2)o1
  TRPV1 PAM: -2.6
  Sfp inh: 0.8%
  Six1-Eya2 inh: 9.4
  D2 agonist: -2.2
  PINK1 modulator: 2.8%[38.3 µM]
  CtBP-E1A blk: 15.9
  D2 PAM: -10.8
CC(C)(C)NCC(=O)N/N=C/c1ccc(OCc2ccccc2)cc1
  TRPV1 PAM: -0.5
  Sfp inh: 11.8%
  Six1-Eya2 inh: 1.7
  D2 agonist: -5.1
  PINK1 modulator: 2.4%
  CtBP-E1A blk: -9.5
  D2 PAM: 1.7

The listing continues.
SMILES	TRPV1 PAM	Sfp inh	Six1-Eya2 inh	D2 agonist	PINK1 modulator	CtBP-E1A blk	D2 PAM
CC(C)c1nc(CNC(=O)CC2C(=O)NCCN2Cc2cccc(F)c2F)cs1 (stereo not drawn)	7.2	7.2%	0.0	-0.6	-0.8%	-3.7	1.3
O=C(NC1CCCCC1)N(Cc1nc2ccccc2c(=O)[nH]1)C1CCCCC1	-12.1	-25.3%	23.9	-3.9	-0.1%	4.1	-9.7
N/C(=N\OC(=O)c1cccc2ccccc12)c1cccc([N+](=O)[O-])c1	-10.6	12.7%	-2.3	?	19.5%[38.3 µM]	-3.4	82.9*
O=C(NN=C1CCCC1)c1[nH]c2ccc(Cl)cc2c1-c1ccccc1	-8.8	-5.7%	-3.0	0.9	-2.5%	-3.3	-0.4
CSc1ccc(/C=C/C(=O)OCC(=O)NC2CC2)cc1	-3.5	nt	-2.2	0.1	-0.2%	-18.8	0.2
Nc1nc(C2CCOCC2)cs1	12.4	18.0%	1.6	-2.2	0.8%	6.0	-3.4
COc1ccc(C(=O)n2cnc3ccccc32)cc1Br	nt	nt	5.2	2.9	0.7%	4.4	-2.6
CCCN(CC(=O)Nc1cc(Cl)ccc1Cl)C(=O)CN1C(=O)C2CCCCC2C1=O (stereo not drawn)	-5.4	10.8%	0.2	1.2	0.0%	4.5	-22.5
O=C(Nc1ccc(S(=O)(=O)N2CCCCCC2)cc1)c1ccc(Br)o1	6.3	12.6%	-8.3	2.6	-1.8%	-11.5	8.1
Cc1ccc(N=Nc2ccc(O)c3ncccc23)cc1	-0.7	32.2%	?	-17.3	18.5%	-22.8	-32.2
CCC(c1nc2ccccc2[nH]1)N(C(=O)Cc1cc(OC)cc(OC)c1)c1ccc(N2CCOCC2)cc1 (stereo not drawn)	nt	nt	-8.8	1.8	1.6%	-3.6	-2.6
O=c1[nH]cnc2nc(-c3ccccc3)c(-c3ccccc3)nc12	12.7	-0.8%	-0.3	-2.4	0.6%	1.0	-12.1
O=c1[nH]c(SCc2nc3ccccc3c(=O)n2-c2ccccc2)nc2ccccc12	8.3	-4.9%	9.0	-3.4	5.8%	6.5	-5.2
O=C(c1ccccc1)c1ccc(OCCCN2CCCCC2)cc1	0.8	?	0.5	-1.9	-0.6%	0.2	-20.5
Cc1cccc(NC(=S)N(Cc2cccs2)Cc2cc3cc(C)ccc3[nH]c2=O)c1	3.8	12.7%	0.4	-0.4	0.3%	0.4	-3.9
COc1ccccc1-n1c(C)nnc1SCC(N)=O	1.9	12.0%	8.5	-2.4	31.6%[38.3 µM]	0.0	-10.3
CC(C)C(OC(=O)Cn1nnc2ccccc21)C(=O)NC1CCCC1 (stereo not drawn)	1.8	6.3%	6.1	0.2	1.5%	4.9	-3.1
COc1ccc(CNS(=O)(=O)NCc2ccc(OC)c(OC)c2)cc1OC	-20.3	9.9%	-15.8	2.0	-0.8%	?	-4.4
O=C(NCC1CCCO1)C(c1cccs1)N(C(=O)c1ccc(CN2CCOCC2)o1)c1ccc(Cl)cc1 (stereo not drawn)	-37.2	-14.8%	3.6	-1.5	3.3%	0.8	-6.7
COc1ccc(NC(=O)c2cccc(Oc3ccccc3)c2)cn1	-11.6	1.5%	-4.4	1.4	-0.9%	3.4	-2.1
COCCNC(=O)C(c1ccc(C)o1)N(C(=O)c1snc(C(N)=O)c1N)c1ccc(C)c(C)c1 (stereo not drawn)	1.1	-7.8%	-2.7	-2.1	-1.1%[38.3 µM]	3.6	-20.5
O=C(N/N=C/c1ccncc1)c1cccc(S(=O)(=O)Nc2ccc(Cl)cc2)c1	-2.4	56.2µM*	-4.3	3.1	0.8%	0.0	-0.9
O=C(NNC(=O)C1COc2ccccc2O1)c1cccc([N+](=O)[O-])c1 (stereo not drawn)	-3.9	10.9%	8.6	2.1	1.9%	1.4	-7.4
CCCN1C(=O)/C(=C/c2ccco2)SC1=Nc1ccc(OC)cc1	-4.8	?	-28.7	0.9	4.3%	-13.6	-3.7
COc1cc(NC(=O)c2cccnc2)c(Cl)cc1NC(=O)c1ccccc1	5.2	20.4%	-9.5	4.4	5.7%	-0.3	-1.2
O=C(NCc1cccnc1)/C(=C/c1ccc(Cl)cc1)NC(=O)c1ccccc1	14.9	19.3%	7.5	0.9	1.1%	24.0	-11.0
COc1ccc(C2Nc3ccccc3C(=O)N2c2ccc(Cl)cc2)cc1Cn1cc([N+](=O)[O-])cn1 (stereo not drawn)	-4.3	12.3%	-4.4	2.8	4.0%	-1.6	3.1
COc1ccc(/C=C\C(=O)NCC(=O)N/N=C/c2ccc(O)cc2O)cc1	2.5	3.8%	-88.0*	-3.7	-0.5%	-17.5	-22.1
CCC(C(=O)Nc1cnccn1)c1ccccc1 (stereo not drawn)	19.4	-9.2%	-1.7	0.5	-0.3%[38.3 µM]	15.6	6.6

Rows are unselected. About 3.7% of those tested had a hit in this group.
